Bioassay records (PubChem BioAssay)
Rango complex inh – Rango-importin beta binding inhibition; Q14974; Rango CFP/YFP FRET sensor + importin beta, 45 min; Potency, µM (highest dose often 92.2 µM), inactives show at the top dose inhibition of complex formation; 340,000 compounds, 0.031% hits; active = rising FRET ratio curve, often small or poorly fitted; inconclusive = mostly compound fluorescence or quenching in the first reads; inactive = flat curves in all reads;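 also: potency is read from the fitted curve at half-maximal effect; 0% = DMSO wells and 100% = buffer wells lacking importin beta; nearly all actives have a fitted effect of over 15% in size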
Target sequence (Q14974 whole entry, looked up): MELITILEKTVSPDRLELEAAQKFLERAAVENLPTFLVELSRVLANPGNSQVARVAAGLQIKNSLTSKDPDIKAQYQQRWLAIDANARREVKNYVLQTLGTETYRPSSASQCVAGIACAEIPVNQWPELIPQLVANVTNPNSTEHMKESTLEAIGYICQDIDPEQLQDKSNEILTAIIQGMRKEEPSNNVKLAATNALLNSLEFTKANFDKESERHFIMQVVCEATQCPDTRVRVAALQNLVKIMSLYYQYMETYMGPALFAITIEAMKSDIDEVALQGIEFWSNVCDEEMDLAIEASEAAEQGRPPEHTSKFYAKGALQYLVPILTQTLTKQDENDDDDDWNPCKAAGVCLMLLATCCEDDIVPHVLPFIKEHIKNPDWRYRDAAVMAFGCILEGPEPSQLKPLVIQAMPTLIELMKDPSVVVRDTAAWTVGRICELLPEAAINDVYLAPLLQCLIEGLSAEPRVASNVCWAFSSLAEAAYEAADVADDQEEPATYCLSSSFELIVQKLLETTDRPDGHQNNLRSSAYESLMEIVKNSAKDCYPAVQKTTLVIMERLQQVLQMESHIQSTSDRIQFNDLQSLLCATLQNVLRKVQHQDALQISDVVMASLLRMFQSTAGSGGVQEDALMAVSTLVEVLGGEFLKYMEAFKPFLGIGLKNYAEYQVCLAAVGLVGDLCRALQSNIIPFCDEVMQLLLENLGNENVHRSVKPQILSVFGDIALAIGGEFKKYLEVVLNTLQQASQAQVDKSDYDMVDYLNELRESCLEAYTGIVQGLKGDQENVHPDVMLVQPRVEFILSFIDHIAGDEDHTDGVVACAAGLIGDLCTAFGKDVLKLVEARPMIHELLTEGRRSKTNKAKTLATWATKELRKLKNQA
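Inhibition scored from the CFP 486 nm/YFP 530 nm FRET ratio 45 min after adding 0.125 microM importin beta to 50 nM Rango biosensor preincubated 5 min with compound (room temperature, PBS with DTT, Tween-20, BSA). No-importin wells as positive control.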
Rango release inh – inhibitors of RanGTP-induced Rango-importin beta complex dissociation | Biochemical FRET Rango-importin beta, RanGTP-induced dissociation | Potency, µM (highest dose often 46.1 µM), without a hit: at the highest dose activity change, negative = inhibition | 340,000 compounds, 0.071% hits | AID 540253; active means falling FRET ratio curve, often poorly fitted, with flat reads before Ran was added; inconclusive means other falling curves, or compound fluorescence or quenching; inactive means flat or rising ratio curve;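 also: potency is read from the fitted curve at half-maximal effect; % of control where 0% means no effect; nearly all actives have a fitted effect of over 45% in size; -100% = wells without RanGTP and RCC1; the record marks most hits as doubtful in a second field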
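Compounds preincubate 5 min with complex of recombinant Rango and importin beta in PBS with 1 mM DTT. Ran (0.6 uM) loaded with 2 mM GTP plus 0.2 uM RCC1 starts dissociation; FRET is recorded 45 min later.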
GLA inh pH 4.5 – inhibitors of human alpha-galactosidase A at pH 4.5. P06280. purified enzyme, 4-MU-alpha-Gal fluorescence, pH 4.5. activity change, negative = inhibition, % at 105 µM. 230,000 tested, under 10 active. AID 1467; inconclusive = small, poorly fitted or top-dose-only inhibition, or a rising curve; inactive = flat fitted curve, though single readings scatter; no compound was filed as active;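 also: 0% = full activity with enzyme and -100% = basal without enzyme; dose as in the result columns while the protocol names 77 µM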
miR-21 FLuc – miR-21 reporter, rising signal; 340,000 tested, under 10 active; HeLa miR-21 FLuc reporter, luciferase, 48 h; Potency, µM (series often up to 38.3 µM), for inactives: top-dose reporter change, positive = more light; active = well fitted rising curve with a large enough effect; inconclusive = small, poorly fitted or top-dose-only effect; inactive = no such curve, though single readings can be large or run the other way;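 also: % of control where 0% means no effect; miR-21 action dims this reporter so a rising signal means less miR-21 action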
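Compounds were titrated across several concentrations (up to approximately 40 uM) and incubated 48 hours with HeLa miR-21-FLuc reporter cells (miR-21 target sequence downstream of FLuc, endogenous miR-21). Readout was firefly luciferase luminescence after lytic detection reagent.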
An asterisk follows results filed as active; ? = inconclusive; . = not tested or not shown; & = joins results of further samples. This is a subset; the hit share may differ from the screen's.

| item | SMILES | Rango release inh | Rango complex inh | miR-21 FLuc | GLA inh pH 4.5 |
| --- | --- | --- | --- | --- | --- |
| 1 | COc1ccc(N2CCN(CCNC(=O)CCNS(=O)(=O)c3cccs3)CC2)cc1 | -5% | 2.4% | 1% | 7 |
| 2 | CC(=O)N1CCN(C(=O)c2cccc(S(=O)(=O)Nc3ccc(C)cc3)c2)CC1 | -1% | -4.2% | -3% | -3 |
| 3 | COC(=O)[C@@H]1C[C@@]2(O)[C@H](O)[C@H](O)[C@H](O)C[C@H]2N1Cc1ccccc1OS(=O)(=O)c1ccc(C)cc1 | ? | -1.6% | -3% | 6&2 |
| 4 | Cc1ccc(-c2noc(CCC(=O)NCCCN3CCN(c4cccc(Cl)c4)CC3)n2)cc1 | -4% | -0.8% | 4% | -8 |
| 5 | CCOC(=O)N=S(=O)(Oc1ccc([N+](=O)[O-])cc1)c1ccc(Cl)cc1 (stereo unspecified) | 1% | 3.5% | -6% | -5 |
| 6 | CCOC(=O)C(=CNc1cc(C)nn1-c1ccc(C)cc1)C(=O)OCC | -15% | -2.0% | 17% | 3 |
| 7 | O=C(O)c1occc1CSc1ccccc1 | 1% | -0.3% | 3% | . |
| 8 | CC(C)CC(=O)NN(C)c1nc(-c2ccccc2)nnc1C(F)(F)F | -2% | -0.5% | -2% | 0 |
| 9 | O=C(COC(=O)c1cccnc1Cl)Nc1cc(S(=O)(=O)N2CCCCCC2)ccc1Cl | 9% | -2.1% | . | . |
| 10 | COc1ccc(Oc2ncccc2NC(=O)c2cccc(C)c2C)cc1 | -13% | 2.8% | -3% | -3 |
| 11 | O=C(Nc1nnc(Cc2c[nH]c3ccccc23)s1)c1ccc(Cl)cc1Cl | ? | -4.8% | 1% | -1 |
| 12 | N#CCCN(Cc1cccnc1)S(=O)(=O)c1ccc(S(=O)(=O)NC2CCCCC2)cc1 | -4% | 0.9% | -6% | -10 |
| 13 | CCCN(C(=O)c1ccccc1Cc1ccccc1)C1CCS(=O)(=O)C1 (stereo unspecified) | -17% | -1.0% | . | . |
| 14 | COc1ccc(S(=O)(=O)N2CCC(C(=O)N[C@@H](C)C(=O)NCc3ccccc3OC)CC2)cc1 | 16% | 0.8% | 5% | . |
| 15 | COc1ccc(CCNc2nc(-c3cccc(NC(C)=O)c3)cs2)cc1OC | -19% | 2.0% | 9% | -1 |
| 16 | COc1cc(CN(C)Cc2ccccc2)cc(OC)c1O | 26% | 0.1% | -2% | -2 |
| 17 | C[C@H](CO)N1C[C@H](C)[C@@H](CN(C)C(=O)NC2CCCCC2)Oc2c(NC(=O)Cc3ccccc3)cccc2C1=O | -12% | 3.9% | . | . |
| 18 | CC(=O)Oc1ccc(C(=O)NC(C)CCc2ccccc2)cc1 (stereo unspecified) | 2% | 0.1% | -4% | . |
| 19 | O=C(NCc1cccnc1)c1ccc(CS(=O)(=O)c2ccc(Cl)cc2)o1 | 5% | -1.1% | 6% | -12 |
| 20 | Cc1ccc(C(=O)CSc2nnc(CNc3ccc(F)cc3)o2)cc1 | 4% | -0.2% | -2% | 3 |
| 21 | CCOc1cc(Br)ccc1S(=O)(=O)N1CC(C)OC(C)C1 (stereo unspecified) | -11% | 0.5% | 11% | -4 |
| 22 | O=C(NCC(=O)N1CCC2(CC1)NCCc1[nH]cnc12)c1ccc(F)cc1 | -19% | ? | -2% | . |
| 23 | CS(=O)(=O)c1nc(S(=O)(=O)c2ccc(Cl)cc2)c(NCCCN2CCCC2=O)s1 | 9% | 0.0% | 1% | . |
| 24 | COc1ccc(C(=O)/C=C/c2cn(CC(O)CN3CCOCC3)c3ccccc23)cc1 (stereo unspecified) | ? | ? | 1% | -16 |
| 25 | Cc1cc(NC(=O)CSc2nnc(CNC(=O)c3cccc(C(F)(F)F)c3)o2)no1 | 2% | -2.9% | 0% | . |
| 26 | COc1cccc(CN(C)C(=O)c2cccc(OC3CCN(C4CCCC4)CC3)c2)c1 | -1% | -4.1% | 0% | 0 |
| 27 | CCN1C(=O)[C@H]2[C@@H](c3ccc(OC)cc3)N3C(=O)CN(Cc4ccccc4)C(=O)[C@@]3(Cc3ccccc3)[C@H]2C1=O | 5% | -0.9% | 2% | . |
| 28 | COc1ccc(OCC(=O)N/N=C(\C)c2ccc(OC)cc2)cc1 | -1% | 0.6% | -3% | 2 |
| 29 | Cc1cc(C(F)F)n2nc(C(=O)Nc3cc(C)on3)nc2n1 | 12% | 4.6% | -4% | 4 |
| 30 | C/C(=N\OC(=O)c1ccc(C)cc1)c1sc(C)nc1C | 1% | 2.2% | -5% | -1 |

In the list so far, three have two or more sulfur atoms:
| item | SMILES | Rango release inh | Rango complex inh | miR-21 FLuc | GLA inh pH 4.5 |
| --- | --- | --- | --- | --- | --- |
| 1 | COc1ccc(N2CCN(CCNC(=O)CCNS(=O)(=O)c3cccs3)CC2)cc1 | -5% | 2.4% | 1% | 7 |
| 12 | N#CCCN(Cc1cccnc1)S(=O)(=O)c1ccc(S(=O)(=O)NC2CCCCC2)cc1 | -4% | 0.9% | -6% | -10 |
| 23 | CS(=O)(=O)c1nc(S(=O)(=O)c2ccc(Cl)cc2)c(NCCCN2CCCC2=O)s1 | 9% | 0.0% | 1% | . |

The listing continues:
| item | SMILES | Rango release inh | Rango complex inh | miR-21 FLuc | GLA inh pH 4.5 |
| --- | --- | --- | --- | --- | --- |
| 31 | C/C(=N/NC(=O)c1ccc(-c2ccccc2)cc1)c1cccc(O)c1 | 2% | -1.3% | -8% | . |
| 32 | OCc1nc2ccc(Cl)cc2[nH]1 | ? | 0.7% | 1% | -7 |
| 33 | C/C(=N\NC(=O)C1CC1)c1ccc(NC(=O)c2ccc(Br)o2)cc1 | . | . | -32% | 7 |
| 34 | CCCn1c2ccccc2c2cnn(CC(=O)OC)c(=O)c21 | 17% | -1.7% | -7% | . |
| 35 | C=C1C(=O)OC2CC1C(O)CC(C)=CCCC(C)=CC(O)CC2C (stereo unspecified) | 1% | -1.9% | . | . |
| 36 | Cc1cccc(C(=O)Nc2cccc(S(=O)(=O)NCc3ccco3)c2)c1 | 0% | -1.1% | . | . |
| 37 | CC(OC(=O)C1CSC2(C)CCC(=O)N12)C(=O)Nc1cccc(C#N)c1 (stereo unspecified) | 9% | 1.2% | . | . |
| 38 | C=CCn1c(SCc2c(C)noc2C)nc2ccccc2c1=O | 1% | 3.2% | 23% | 2 |
| 39 | CCc1ccc(-c2nc(CN3CCCC(C(=O)O)C3)c(C)o2)cc1 (stereo unspecified) | -9% | 1.4% | -1% | 2 |
| 40 | Cc1cc(Nc2ccc(Cl)cc2)n(-c2cccc(Cl)c2)n1 | 1% | -4.7% | 6% | -1 |
| 41 | CC(C)(C)c1ccc(OCCCNCc2ccccc2)cc1 | -1% | 0.1% | -1% | -1 |
| 42 | c1ccc2c(c1)nnn2-c1ncnc2sc3c(c12)CCCC3 | 1% | -1.3% | -12% | 8 |
| 43 | C/C(CCN1CCc2nc(-c3ccccc3)c(-c3ccccc3)cc2C1)=N\O[C@@H](C)c1cn([C@H](CO)Cc2ccccc2)nn1 | . | . | 16% | -10 |
| 44 | C=CCOC(=O)/C(=C\c1ccccc1)NC(=O)c1ccc(C)cc1 | -18% | -1.0% | -58% | -1 |
| 45 | COc1ccc(Cn2c(=O)[nH]c3cc(C(=O)N4CCN(c5ccccc5)CC4)ccc3c2=O)cc1 | 1% | 1.8% | 10%&10% | . |
| 46 | CC(C)(C)NC(=O)NC(=O)CSc1ncn[nH]1 | -5% | 3.8% | -1% | 11 |
| 47 | COc1ccc(CNC(=O)c2ccc(C)o2)cc1 | -8% | -2.4% | -11% | -1 |
| 48 | Cc1cc(C(C)c2ccccc2)c(O)c(CN2CCOCC2)c1C (stereo unspecified) | 8% | -3.9% | 1% | -23 |
| 49 | Cc1cc(C)nc(SCC(=O)n2c3c(c4ccccc42)CCCC3)n1 | -11% | ? | 1% | -1 |
| 50 | CC(C)(C)NC(=O)COC(=O)c1cc(S(=O)(=O)N2CCCCC2)ccc1N1CCOCC1 | ? | -0.3% | -3% | -5 |
| 51 | CN1C(c2ccccc2)CC(=NO)CC1c1ccccc1 (stereo unspecified) | -11% | -2.8% | -13% | . |
| 52 | Cn1cccc1C(=O)NCC(c1ccco1)N1CCCCC1 (stereo unspecified) | -14% | 4.3% | . | . |
| 53 | CC(C)NC(=O)CC1OC(=O)c2ccccc21 (stereo unspecified) | -1% | -1.7% | 0% | 7 |
| 54 | CC1(C)Oc2cc3oc(=O)ccc3cc2C[C@@H]1O | 3% | -1.9% | . | . |
| 55 | COc1ccc(S(=O)(=O)N(C)C[C@H]2Oc3c(NC(=O)NC4CCCCC4)cccc3C(=O)N([C@H](C)CO)C[C@@H]2C)cc1 | 0% | -1.7% | . | . |
| 56 | Cc1ccc2cc(C#N)c(N3CCCN(C(=S)NCCCN(C)C)CC3)nc2c1 | ? | ? | 10% | . |
| 57 | CCOC(=O)Cc1csc(NC(=O)c2sc3nc4ccc(C)cc4cc3c2N)n1 | 9% | -4.0% | -36% | -2 |
| 58 | O=C(CN1C(=O)NC(c2ccccc2)(c2ccccc2)C1=O)N1CCCCC1 | -19% | 2.6% | . | . |
| 59 | C=CCNc1oc(/C=C/c2ccccc2)nc1C#N | ? | -4.4% | -45% | ? |
| 60 | CC(=O)NC12CC3CC(C1)CC(C(=O)N1CCN(S(=O)(=O)c4ccc(C(C)C)cc4)CC1)(C3)C2 | -8% | -0.4% | . | . |

Results in miR-21 FLuc and Rango release inh, for 2 of the compounds above:
| nr | SMILES | miR-21 FLuc | Rango release inh |
| --- | --- | --- | --- |
| 51 | CN1C(c2ccccc2)CC(=NO)CC1c1ccccc1 (stereo unspecified) | -13% | -11% |
| 52 | Cn1cccc1C(=O)NCC(c1ccco1)N1CCCCC1 (stereo unspecified) | . | -14% |

Full records as entered above. Values in the order: Rango release inh	Rango complex inh	miR-21 FLuc	GLA inh pH 4.5
Listed for COc1ccc(CNC(=O)c2ccc(C)o2)cc1 = -8%	-2.4%	-11%	-1
Listed for COc1ccc(Cn2c(=O)[nH]c3cc(C(=O)N4CCN(c5ccccc5)CC4)ccc3c2=O)cc1 = 1%	1.8%	10%&10%	.
Listed for O=C(CN1C(=O)NC(c2ccccc2)(c2ccccc2)C1=O)N1CCCCC1 = -19%	2.6%	.	.

(next part)
| item | SMILES | Rango release inh | Rango complex inh | miR-21 FLuc | GLA inh pH 4.5 |
| --- | --- | --- | --- | --- | --- |
| 61 | O=C(Cn1nc(-c2cccc(Cl)c2)ccc1=O)Nc1ccccc1Br | 6% | -0.1% | -2% | 2 |
| 62 | COC(=O)CSc1nc2nc(C)cc(C)n2n1 | -22% | 1.8% | -1% | -5 |
| 63 | Cc1onc(-c2c(F)cccc2Cl)c1C(=O)N1C=CC(C(F)(F)F)=NCC1 | -2% | -0.3% | 1% | 1 |
| 64 | CCc1nn(C(CC)C(=O)NCCc2ccc(OC)cc2OC)c(=O)c2cc3occc3n12 (stereo unspecified) | 5% | -0.4% | 1% | . |
| 65 | Cc1cc(C)n2nc(SCc3cc(=O)oc4ccc5ccccc5c34)nc2n1 | -2% | 0.1% | -4% | -7 |
| 66 | COc1cc2c(C#N)c(N3CCCC3)nc(N)c2c(N)n1 | ? | ? | -1% | 11 |
| 67 | CCOCCCn1c(=N)c(C(=O)NCc2ccc3c(c2)OCO3)cc2c(=O)n3ccccc3nc21 | . | . | -2% | 6 |
| 68 | CCOC(=O)C1CCCN(CCC(=O)Nc2ccc(Br)cc2)C1 (stereo unspecified) | 4% | -0.1% | -6% | . |
| 69 | C/C(CCC1CC(C)(C)OC1=O)=N\NC(N)=S (stereo unspecified) | 1% | -0.8% | 3% | 8 |
| 70 | CCONC(=NC)c1nonc1N | -13% | -0.3% | 0% | 3 |
| 71 | Cc1cccc(-c2csc(NC(=O)c3cnccn3)c2C(=O)OC(C)C)c1 | -19% | -0.8% | -6% | 0 |
